RE007 growth inh: less growth of the S. pombe RE007 Vpr strain; Potency, µM (doses to about 92.2 µM), inactives show at the highest dose activity change, negative = less growth; S. pombe RE007 Vpr strain, BacTiter-Glo ATP luminescence, 24 h; control for the full effect not named in the record; 360,000 tested, 0.21% active; AID 651644; active = well fitted falling curve with a large enough effect; inconclusive = small, poorly fitted or top-dose-only effect; inactive = no such curve, though single readings can be large or run the other way;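 note: % is set by controls: 0 for no effect and ±100 for the full control effect; nearly all actives have a fitted effect of over 50% in size; the assay follows cell death caused by Vpr and the record does not say whether a fall means rescue or toxicity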
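Fission yeast strain RE007, carrying one chromosomally integrated HIV-1 vpr copy, was seeded at OD 0.01 in PMG+AL medium with 23 nL pinned compound. After 24 h at 30 °C and 99% humidity, viability was read by BacTiter-Glo luminescence.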
StopGo reporter: lowers the luciferase signal of an FMDV 2A StopGo reporter; human cells with a luciferase reporter of 2A StopGo recoding; control for the full effect not named in the record; Potency, µM (series often up to 57.9 µM), inactives show at the top dose signal change, negative = less light; 410,000 tested, 1.2% active; AID 1159524; active = well fitted falling curve with a large enough effect; inconclusive = small, poorly fitted or top-dose-only effect; inactive = no such curve, though single readings can be large or run the other way; tested in HEK293T cells; note: % is set by controls: 0 for no effect and ±100 for the full control effect; nearly all actives have a fitted effect of over 45% in size; luciferase light after 4 h
MARV entry inh: inhibitors of Marburg virus binding or cell entry. Marburg virus pseudotyped entry inhibition, cell reporter; control for the full effect not named in the record; about a third of the inactives were read at about 46 µM. Potency, µM (series often up to 37.8 µM), for the others: top-dose activity change, negative = inhibition, hits mostly inhibitors. 300,000 tested, 1.8% active. AID 540276; active = well fitted inhibition curve with a large enough effect; inconclusive = small, poorly fitted or top-dose-only effect, or effect the other way; inactive = flat fitted curve, though single readings scatter; tested in HEK293 cells; about a fifth of its hits are not listed in these tables; note: % is set by controls: 0 for no effect and ±100 for the full control effect; luciferase read-out
Cruzain Triton: blocks cruzain activity in presence of Triton detergent; P25779; purified cruzain, Z-FR-AMC fluorescence, 0.01% Triton; Potency, µM, for inactives: max response, negative = inhibition, hits mostly inhibitors; 200,000 tested, 0.43% active; AID 1478;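 note: plate controls were neutral wells for no effect and buffer without enzyme for full effect; nearly all actives have a fitted effect of over 40% in size; top concentration of the series not given in the record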
Target sequence (P25779 123-467 limits assumed): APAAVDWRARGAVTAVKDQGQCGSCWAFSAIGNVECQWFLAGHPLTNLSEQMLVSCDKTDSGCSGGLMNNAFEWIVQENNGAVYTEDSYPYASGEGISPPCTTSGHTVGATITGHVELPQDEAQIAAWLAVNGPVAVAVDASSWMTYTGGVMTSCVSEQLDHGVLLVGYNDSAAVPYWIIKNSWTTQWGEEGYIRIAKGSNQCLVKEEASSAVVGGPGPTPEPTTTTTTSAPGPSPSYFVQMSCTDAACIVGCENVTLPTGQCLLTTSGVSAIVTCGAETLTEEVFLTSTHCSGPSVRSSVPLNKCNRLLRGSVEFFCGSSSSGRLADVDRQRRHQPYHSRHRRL
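Detergent-containing arm of a paired screen for aggregation-based inhibition: 0.01% Triton X-100 present. Cruzain at 1.5 nM cleaved 2 uM Z-FR-AMC at pH 5.5 with 5 mM DTT; AMC fluorescence gain over 60 s measured activity.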
NS1 function inh: influenza NS1 inhibition. S. cerevisiae slowed by influenza A NS1, growth recovery by OD600. Potency, µM (highest dose often 46.1 µM), without a hit: top-dose activity, positive = more growth. 270,000 tested, 0.4% active; active means well fitted rising curve with a large enough effect; inconclusive means small, poorly fitted or top-dose-only effect; inactive means no such curve, though single readings can be large or run the other way; note: nearly all actives have a fitted effect of over 50% in size
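Growth recovery, yeast-based: influenza A NS1 expressed in S. cerevisiae causes slow growth, and suppressors are detected by OD600. The parent strain without NS1 is used as positive control.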
LASV entry inh: blocks Lassa virus binding to or entry into cells | 300,000 tested, 1.2% active | Potency, µM (doses to about 37.9 µM), for the others: at the top dose activity change, negative = inhibition, actives largely listed as inhibitors | AID 540256 | Lassa virus pseudotype entry inhibition, cell reporter; control for the full effect not named in the record; active means well fitted inhibition curve with a large enough effect; inconclusive means small, poorly fitted or top-dose-only effect, or effect the other way; inactive means flat fitted curve, though single readings scatter; tested in HEK293 cells; note: % is set by controls: 0 for no effect and ±100 for the full control effect; nearly all actives have a fitted effect of over 50% in size; luciferase read-out
Cruzain noTriton: inhibitors of Trypanosoma cruzi cruzain without detergent; AID 1476; 200,000 tested, 2.3% active; Potency, µM, for the others: max response, negative = inhibition, usual class: inhibitors; purified cruzain, Z-FR-AMC fluorescence, no detergent;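 note: plate controls were enzyme without inhibitor for no effect and buffer without enzyme for full effect; nearly all actives have a fitted effect of over 40% in size; top concentration of the series not given in the record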
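Detergent-free condition (0.00005% Triton X-100) in acetate buffer pH 5.5 with DTT. 1.5 nM enzyme and compound were pre-mixed 15 min, then 2 uM Z-FR-AMC substrate added; reaction progress from fluorescence change between first and third reads (60 s).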
SARS PLpro yeast: blocks SARS-CoV papain-like protease in a yeast assay | Potency, µM (series often up to 32.9 µM), for the others: at the top dose activity, positive = growth rescue | 330,000 tested, 0.19% active | S. cerevisiae expressing SARS-CoV PLpro, growth rescue; control for the full effect not named in the record; active means well fitted rising curve with a large enough effect; inconclusive means small, poorly fitted or top-dose-only effect; inactive means no such curve, though single readings can be large or run the other way; note: 0% is about no effect; nearly all actives have a fitted effect of over 55% in size; growth read by luminescence after 48 h
* = called active by the depositor; ? = inconclusive; · = no result given; [ ] = remark or other dose. Unless noted, calls come from the whole dose curve; as a rule, active = well fitted curve in the direction sought with a large enough effect; inconclusive = small, poorly fitted or top-dose-only effect, or another doubt; inactive = no such curve, though single readings can be large; an effect the other way counts as inactive or inconclusive. Potency is the fitted concentration of half-maximal effect.

SMILES	RE007 growth inh	StopGo reporter	MARV entry inh	Cruzain Triton	NS1 function inh	LASV entry inh	Cruzain noTriton	SARS PLpro yeast
COc1ccccc1C(CNC(=O)CCNS(=O)(=O)c1ccc(Br)cc1)N1CCCC1 (centres undefined)	-14%	-10%	?	·	·	9%	·	·
CN(C)C(=O)CSc1nc(-c2ccccc2)nc2c1CCCC2	-16%	?	-30%	-2.5%	-5%	-4%	8%	-12%
COc1ccc(CNC(=O)COC(=O)c2cnccn2)cc1	-3%	11%	9%	5.4%	7%	4%	1%	-5%
COc1ccc(C(=O)Nc2cc(C(C)C)c(O)c(S(=O)(=O)c3ccc(OC)cc3)c2C)cc1	·	61%[activator]	?	-1.4%	·	2%[46.1 µM]	25µM*	·
O=C(/C=C/c1ccccc1)NC(=S)NNC(=O)c1ccco1	-13%	-5%	-27%	2.6%	-25%	-2%	-6%	12%
O=C(C1=C(O)C(=O)N(CCCn2ccnc2)C1c1cccc(Br)c1)c1ccco1 (centres undefined)	3%	2%	·	·	1%	·	·	1%
O=C(OC(C(=O)NCC1CCCO1)c1ccc(F)cc1)c1cccs1 (centres undefined)	-11%	·	14%	-4.8%	-2%	8%	-9%	2%
Cc1ccc(CN2CCN(CC(=O)N/N=C/c3ccc(C)o3)CC2)cc1	-27%	-18%	·	·	10%	·	·	?
O=C(O)c1ccc(N/N=C/c2ccc3ncccc3c2)cc1	1%	2.8µM*	?	-10%	-3%	?	-8%	-12%
Cc1cccc(NC2(C(=O)O)CCCC2)c1	-19%	10%	-11%[46.1 µM]	·	·	-3%[46.1 µM]	·	·
CCN(CC)c1cccc(OCC(=O)N(C)CCC#N)c1	3%	8%	24%	0.7%	-1%	?	4%	4%
CC(=O)Nc1ccc(S(=O)(=O)NCc2ccccn2)cc1	-3%	-17%	?	1.5%	7%	22%	15%	-14%
Cc1ccc(NC(=O)C2CCN(C(=O)NC3CCCCC3)CC2)cc1Cl	-6%	-8%	-6%[46.1 µM]	2.9%	1%	5%	-3%	-2%
O=C(NC(=S)N(CCc1ccccc1)CCc1ccccc1)c1ccco1	-18%	7%	?	-6.0%	3%	8.9µM*	0%	15%
O=C1CSC(c2ccc3c(c2)OCO3)N1c1ccc(Oc2ccccc2)cc1 (centres undefined)	20%[3.69 µM]	-19%	10%	1.7%	25%	7%	?	-1%
C=CCN(c1ccccc1Cl)S(=O)(=O)c1cc(C(=O)N2CCCC2)ccc1Cl	-21%	0%	·	·	7%	·	·	-2%
COc1ccc(/C=C(\NC(=O)c2ccco2)C(=O)NCc2ccco2)cc1	-3%	10%	7%	·	3%	0%	·	-1%
CN1CCN(S(=O)(=O)c2ccc(Nc3ccc(F)cc3)c([N+](=O)[O-])c2)CC1	-1%	-29%	-8%[46.1 µM]	·	·	-7%	·	2%
CCOC(=O)N/N=C/c1ccc(F)cc1	0%	40%[activator]	5%	8.5%	0%	12%	4%	-2%
CC(=O)c1cccc(CN(C)CC2CCCN(CCc3ccccc3C)C2)c1 (centres undefined)	-20%	-4%	·	·	9%	·	·	4%
O=C(CN1C(=O)c2cccc([N+](=O)[O-])c2C1=O)N1CCN(c2ccc(F)cc2)CC1	23%	-15%	8%[46.1 µM]	·	·	·	·	-1%
Clc1ccccc1C1NCc2ccccc2-n2cccc21 (centres undefined)	-4%	24%	-18%	·	·	-30%	·	4%
COc1cccc(NC(=O)CN(C)C(=O)CSc2nc3ccccc3s2)c1	0%	-6%	7%	·	·	3%	·	-6%
Cn1cc(CN2CCc3ccccc3C2)c2ccccc21	-2%	-3%	?	0.8%	-5%	-13%	-15%	-3%
O=C(c1ccc(NC2=NC3CS(=O)(=O)CC3S2)cc1)N1CCN(C(=O)c2ccco2)CC1 (centres undefined)	6%	-11%	-23%	1.7%	23%	9%	2%	2%
CCOC(=O)N1CCC(NC(=O)CSCc2nc(-c3ccc(OC)c(OC)c3)oc2C)CC1	1%	7%	?	4.5%	-4%	-25%	?	18%
O=C(Cn1nc(C(F)(F)F)cc1C1CC1)Nc1ccccc1F	-16%	-27%	1%	-3.0%	15%	5%	-14%	15%
O=C(Nc1ccc(F)cc1F)NC1CC(=O)N(Cc2ccccc2)C1 (centres undefined)	4%	?	-15%	-0.6%	9%	13%	-10%	-8%
CCCCC(=O)N1CCN(c2ccc(OC)cc2[N+](=O)[O-])CC1	-11%	-14%	-11%	-2.3%	-27%	-18%	9%	-23%
O=C(CSc1nc2ccc(Cl)cc2[nH]1)N1CCN(C(=O)c2ccco2)CC1	·	-13%	7%	-16%	2%	7%	-8%	12%
CC(=O)N1CCc2c(sc3nc(SCC(C)C)n(-c4ccc(C)c(Cl)c4)c(=O)c23)C1	·	-23%	?	-9.7%	·	?	?	·
CC(=O)c1ccc(NS(=O)(=O)c2ccc(C(C)(C)C)cc2)cc1	-12%	46%[activator]	·	·	-7%	·	·	2%
C=CCNC(=S)NCCO	10%	3%	·	·	-1%	·	·	-4%
CCCC(=O)Nc1cccc(Oc2nc(C)cc(C)c2C#N)c1	3%	3%	8%	2.1%	-48%	-6%	3%	-6%
C/C(=N\N1CCN(Cc2ccccc2Cl)CC1)c1ccc(F)cc1	-2%	-16%	?	·	3%	?	·	-2%
COc1ccc(-n2c(=O)c3ccccc3c3ccccc3c2=O)cc1	4%	?	20%	-4.9%	10%	6%	-12%	-3%
O=C(Nc1ccccc1)c1c2c(nc3ccccc13)CCCC2	1%	10%	-10%	·	5%	2%	·	0%
COc1ccc(CCNC(=O)CN(c2ccc(C)cc2)S(=O)(=O)c2ccc(OC)cc2)cc1	·	-19%	1%[46.1 µM]	-7.8%	·	-9%[46.1 µM]	3%	·
COc1ccc(C2c3c(oc4ccccc4c3=O)C(=O)N2c2ccccn2)cc1 (centres undefined)	-1%	-2%	·	1.4%	-18%	·	-14%	-5%
CCN1C(C(=O)c2ccccc2)=C(OC(=O)COc2ccc(C)cc2)c2ccccc2S1(=O)=O	·	-4%	?	-9.0%	·	0%[46.1 µM]	-20%	·
CSc1nnc(-c2ccccc2)c(-c2ccccc2)n1	-8%	-23%	·	·	-1%	·	·	-1%
Cc1cccc(NC(=O)Cn2c(=O)nc(-c3ccccc3)c3ccccc32)c1C	·	0%	·	1.2%	·	?	-1%	·
COc1ccc(-c2cc(=O)[nH]c(=O)[nH]2)cc1	-12%	18%	-1%	-0.7%	-3%	10%	-1%	-19%
CCOC(=O)Cc1c(Cl)c2ccccc2[nH]c1=O	16%	-1%	15%[46.1 µM]	·	0%	23%[46.1 µM]	·	4%
CC(OC(=O)C12CC3CC(CC(O)(C3)C1)C2)C(N)=O (centres undefined)	-22%	0%	-19%[46.1 µM]	·	·	?	·	0%
COc1ccc(CNC(=O)CN2C(=O)CSc3ccc(S(=O)(=O)N4CCCCC4)cc32)cc1	-7%	-14%	13%[46.1 µM]	·	9%	-17%[46.1 µM]	·	-5%
Cc1ccc(S(=O)(=O)N2CCN(c3nc(C)c4c(c3C#N)CC(C)(C)OC4)CC2)cc1	-2%	?	?	-2.7%	9%	?	24%	-9%
COP(=O)(CN(Cc1ccccc1)C(=S)Nc1c(C)cccc1C)OC	0%	-5%	5%[46.1 µM]	·	·	2%	·	-3%
O=C(CCCN1C(=O)c2cccc3cccc(c23)C1=O)Nc1ccon1	3%	-10%	-5%[46.1 µM]	·	-8%	6%	·	3%
O=C1CCNc2ccc(-c3ccccc3)cc21	-15%	33%[activator]	2%	-5.3%	-16%	2%	20µM*	-32%
CCOc1ccc(N(C(=O)c2snc(C(N)=O)c2N)C(C(=O)NCC2CCCO2)c2c[nH]c3ccccc23)cc1 (centres undefined)	1%	-21%	?	·	-27%	·	·	3%
CCCc1cc(C(=O)N2CCN(c3ccc(C(F)(F)F)cn3)CC2)sc1C	-5%	-25%	?	·	-14%	1%	·	-7%
COc1ccc([C@@H]2Sc3cc(OC)ccc3N(CCN(C(C)C)C(C)C)C(=O)[C@H]2OC(C)=O)cc1	9%	-9%	?	-2.3%	-13%	?	-23%	0%
O=c1[nH]cccc1-c1nc2ccccc2n1Cc1cccc(F)c1	-7%	-10%	?	·	5%	0%	·	-1%
COC(=O)c1ccc(CN2CCN(Cc3ccccc3)C(CCO)C2)cc1 (centres undefined)	-1%	1%	-26%[46.1 µM]	·	3%	5%	·	-1%
COC(=O)C1C(O)C(C)C(O)C(C)(O)/C=C\C=C(/C)C(=O)Nc2c(C)c(OC(C)=O)c3c(c2O)C(=O)C(C)=C2OCOC(=C23)/C(C)=C/C(C)(O)C(O)C(C)C1O (centres undefined)	-8%	1%	-35%[46.1 µM]	·	7%	10%[46.1 µM]	·	2%
CCN(C1CCCCC1)S(=O)(=O)c1ccc(S(=O)(=O)NCCc2ccncc2)cc1	-13%	81%[activator]	0%	-2.5%	-96%	-18%[14.3 µM]	16%	6%
CC(C)n1nnnc1SCC(=O)NCCc1ccccc1	9%	68%[activator]	?	6.5%	1%	13%	-1%	2%
O=S1(=O)CC(O)C(Nc2ccccc2)C1 (centres undefined)	-20%	12%	20%	-1.1%	1%	22%	0%	·
CCOC(=O)c1ccc(N2C(=O)CC(NNC(=O)c3ccc(Br)s3)C2=O)cc1 (centres undefined)	5%	-3%	?	·	6%	-1%	·	-2%
Cc1cccc(N(CC(=O)NC(C)(C)C)C(=O)CS(=O)CC(=O)Nc2ccc3c(c2)OCO3)c1 (centres undefined)	14%	46%[activator]	·	·	-3%	·	·	-2%
O/N=C(/c1ccccc1)c1cc2cc(Br)cc(Br)c2o1	-9%	23%	?	·	6%	8%	·	-1%

Whole records as entered above.
`CCOC(=O)c1ccc(N2C(=O)CC(NNC(=O)c3ccc(Br)s3)C2=O)cc1` (centres undefined) across the screens: RE007 growth inh: 5%; StopGo reporter: -3%; MARV entry inh: ?; Cruzain Triton: ·; NS1 function inh: 6%; LASV entry inh: -1%; Cruzain noTriton: ·; SARS PLpro yeast: -2%
`COc1ccc([C@@H]2Sc3cc(OC)ccc3N(CCN(C(C)C)C(C)C)C(=O)[C@H]2OC(C)=O)cc1` across the screens: RE007 growth inh: 9%; StopGo reporter: -9%; MARV entry inh: ?; Cruzain Triton: -2.3%; NS1 function inh: -13%; LASV entry inh: ?; Cruzain noTriton: -23%; SARS PLpro yeast: 0%
